Source: PubChem (several laboratories)
RGS16-Gao = modulates binding between human RGS16 and Galphao | bead-based flow cytometry RGS16-Galphao binding, fluorescence; actives lie on both sides | binding response (% of control), % at 10 µM | 220,000 tested, 0.38% active;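 active means below 25% or above 175%, edge rows of some plates excepted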;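 further: Galphao activated by GDP with aluminum fluoride before binding; 100% = wells without compound and 0% = beads without RGS; some results beyond the cut were filed as inactive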
PKD1 inh = blocks activity of human protein kinase D1 | AID 797 | 200,000 tested, 0.056% active | inhibition, %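 (about 10 µM by stock and volumes)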 | PKD1 kinase fluorescence polarization assay | Q15139;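 active means inhibition of 50% or more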;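 further: controls were vehicle for no effect and a reference inhibitor for full effect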
Target sequence (Q15139 whole entry, looked up): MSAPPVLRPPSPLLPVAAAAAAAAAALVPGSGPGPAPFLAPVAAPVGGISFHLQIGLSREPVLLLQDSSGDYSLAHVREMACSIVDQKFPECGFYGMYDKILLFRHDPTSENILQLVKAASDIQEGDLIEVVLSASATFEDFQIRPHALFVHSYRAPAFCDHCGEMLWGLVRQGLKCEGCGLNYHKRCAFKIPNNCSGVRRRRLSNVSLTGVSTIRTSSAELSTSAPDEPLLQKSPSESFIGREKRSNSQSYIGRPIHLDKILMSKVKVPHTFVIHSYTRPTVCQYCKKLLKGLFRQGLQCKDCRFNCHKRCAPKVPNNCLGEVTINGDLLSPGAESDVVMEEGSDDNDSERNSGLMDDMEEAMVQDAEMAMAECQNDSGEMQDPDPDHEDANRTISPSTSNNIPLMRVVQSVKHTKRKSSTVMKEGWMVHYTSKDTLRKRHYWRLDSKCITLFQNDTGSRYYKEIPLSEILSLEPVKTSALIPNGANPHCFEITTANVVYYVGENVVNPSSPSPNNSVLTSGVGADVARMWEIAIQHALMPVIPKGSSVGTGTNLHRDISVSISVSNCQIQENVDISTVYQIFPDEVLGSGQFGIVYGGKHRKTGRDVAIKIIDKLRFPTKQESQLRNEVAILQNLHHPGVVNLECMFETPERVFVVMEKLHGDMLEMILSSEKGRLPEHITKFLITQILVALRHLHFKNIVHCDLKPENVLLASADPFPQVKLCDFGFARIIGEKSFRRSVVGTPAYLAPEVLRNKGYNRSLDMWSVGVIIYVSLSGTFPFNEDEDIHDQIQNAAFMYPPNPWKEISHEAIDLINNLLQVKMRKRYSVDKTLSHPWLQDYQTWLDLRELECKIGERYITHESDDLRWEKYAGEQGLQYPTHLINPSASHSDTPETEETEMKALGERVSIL
GALR2 agonist = GALR2 (human) receptor agonism; O43603; GALR2-expressing cells, agonist activation read-out; activation, %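 (tested at 5 µM)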; 140,000 tested, 0.48% active;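 active means above mean plus 3 SD of all compounds, about 5% in these data, not always enough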;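 further: 0% = vehicle buffer wells and 100% = reference agonist at full effect; tested in CHO reporter cells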
HSV replic up = increases HSV replication in cells; HSV replication augmentation in cells, fold increase; maximum fold increase; AID 1956; 220,000 tested, 0.005% active;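 active means peak rise of 1.5-fold or more in the series; tested in PC3 cells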;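 further: first round at 10 µM; read as green reporter fluorescence; hits show the peak of a series up to 25 µM; 1 = signal of infected wells without compound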
Insulin prom inh = TRM-6 insulin promoter activity inhibition. TRM-6 cells (human fetal islet line), insulin promoter-eGFP reporter, imaging; reporter expression induced with tamoxifen. inhibition, % at 2 µM. 130,000 tested, 0.9% active;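 active means inhibition above the mean plus 3 SD, with well images judged a real hit on visual review, cut at about 60% in these data, passing the limit was not always enough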
Insulin prom inh cell count = also measured in Insulin prom inh; calls as there; normalized cell count, %; measured here: cell count, toxicity; reference of the scale not given here;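 cells exposed to compound for 48 h; stained nuclei by imaging scaled within each plate; lower means fewer cells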
HSV replic up primary fold = recorded beside HSV replic up, whose call it bears; fold increase; compound at 10 µM; measured here: primary screen fold increase 10 uM; tested in PC3 cells;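 GFP signal in the first replicate; 1 = infected wells without compound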
* = called active by the depositor; i = inactive; · = no result given. Hits appear at their usual frequency (roughly 1.3% active in at least one column).

#	molecule	RGS16-Gao	PKD1 inh	GALR2 agonist	HSV replic up
1	Cc1ccc(-c2nc3cccnc3o2)cc1NC(=O)COc1ccc(C(C)(C)C)cc1	37	-10	-2.4	i
2	CCOC(=O)C1=C(C)N=c2s/c(=C3\C(=O)Nc4ccccc43)c(=O)n2C1c1ccc2c(c1)OCO2 (stereo not given)	75	-11	-5.7	i
3	CCOc1ccc2nc(-c3cc(NC(C)=O)ccc3O)sc2c1	108	8	·	i
4	CCCN1CCN(CCCNC(=O)CCn2nc(-c3ccccc3)ccc2=O)CC1	105	13	·	i
5	CCOc1ccc(-c2noc(-c3cccnc3)n2)cc1OCC	98	·	·	i
6	O=C1CN(C(=O)COC(=O)c2cnc(Cl)c(Cl)c2)c2ccccc2N1	111	2	·	i
7	CSc1cc(C)nc(NC(C)=O)n1	102	-1	1.6	i
8	Cc1nn(C)c(C)c1CN(C)C(=O)CCCC(=O)O	99	-7	-2.0	i
9	O=C1NC(=S)S/C1=C/c1ccc(N2CCOCC2)o1	88	-5	-0.5	i
10	CCOC(=O)Cn1c(=NC(=O)C(C)C)sc2c(C)cc(C)cc21	99	·	·	i

#	HSV replic up primary fold	Insulin prom inh	Insulin prom inh cell count
1	0.74	-12	130
2	1	-24	168
3	0.92	-79	158
4	0.94	50	82
5	1	·	·
6	0.96	0	95
7	1.1	·	·
8	1.1	68	117
9	0.99	-141	111
10	0.94	·	·

An excerpt from above in order of molecular weight, falling.
#	molecule	RGS16-Gao	PKD1 inh	GALR2 agonist	HSV replic up
4	CCCN1CCN(CCCNC(=O)CCn2nc(-c3ccccc3)ccc2=O)CC1	105	13	·	i
8	Cc1nn(C)c(C)c1CN(C)C(=O)CCCC(=O)O	99	-7	-2.0	i
7	CSc1cc(C)nc(NC(C)=O)n1	102	-1	1.6	i

#	HSV replic up primary fold	Insulin prom inh	Insulin prom inh cell count
4	0.94	50	82
8	1.1	68	117
7	1.1	·	·

(list continues)
#	molecule	RGS16-Gao	PKD1 inh	GALR2 agonist	HSV replic up
11	Cc1ccc(CNC(=O)C2CCC(CNc3nc(=S)[nH]c4ccccc34)CC2)cc1 (stereo not given)	127	1	·	i
12	COc1ccc(C)cc1S(=O)(=O)N(CC(=O)Nc1ccc2c(c1)OCCO2)Cc1ccccc1	104	3	-2.0	i
13	Cc1ccc(CO/N=C/C2=C(Cl)c3ccccc3CC2)cc1	106	-1	-0.9	i
14	CC1CCC(n2c(=S)[nH]c3ccccc3c2=O)CC1 (stereo not given)	138	13	-2.5	i
15	COc1ccc(C(=O)N2CCN(Cc3nc(CC4CC4)no3)CC2)cc1	98	0	·	i
16	Cc1ccc(NC(=O)CS(=O)CC(=O)N(C2CCCC2)C(C)C(=O)NC2CCCCC2)cc1 (stereo not given)	102	-10	0.0	i
17	CCC(=O)NC1(C(F)(F)F)C(=O)NC(C)=C1C#N (stereo not given)	91	0	-1.5	i
18	CCCCOc1ccc(N(CC(=O)NC(C)C)C(=O)CCC(=O)Nc2ccccn2)cc1	98	0	·	i
19	O=C(NC12CC3CC(CC(C3)C1)C2)C1=COCCO1	106	-4	1.0	i
20	O=C(c1cc(F)c(F)cc1Cl)N1CCN(c2ccc([N+](=O)[O-])c3ncccc23)CC1	114	-9	-0.6	i

#	HSV replic up primary fold	Insulin prom inh	Insulin prom inh cell count
11	1	·	·
12	0.98	17	127
13	1	79*	46*
14	0.88	80*	155*
15	0.94	·	·
16	0.82	-60	118
17	1.1	-23	55
18	1	-31	133
19	0.88	·	·
20	0.95	16	135

Full records, quoted from the list:
CC1CCC(n2c(=S)[nH]c3ccccc3c2=O)CC1 (stereo not given) is listed as RGS16-Gao: 138; PKD1 inh: 13; GALR2 agonist: -2.5; HSV replic up: i; HSV replic up primary fold: 0.88; Insulin prom inh: 80*; Insulin prom inh cell count: 155*
O=C(c1cc(F)c(F)cc1Cl)N1CCN(c2ccc([N+](=O)[O-])c3ncccc23)CC1 is listed as RGS16-Gao: 114; PKD1 inh: -9; GALR2 agonist: -0.6; HSV replic up: i; HSV replic up primary fold: 0.95; Insulin prom inh: 16; Insulin prom inh cell count: 135

(continued)
#	molecule	RGS16-Gao	PKD1 inh	GALR2 agonist	HSV replic up
21	COc1ccc(C(=O)CSc2nnc3ccccn23)cc1OC	101	0	·	i
22	CC(C)NCC(O)COc1c(F)cc(Br)cc1F (stereo not given)	101	4	-0.2	i
23	c1ccc2c(c1)CC1(CCCCC1)n1nnnc1-2	111	-5	-0.8	i
24	CCOC(=O)N1CCC(NC(=O)c2cc(C)c3c(C)nn(-c4ccccc4)c3n2)CC1	107	-7	-0.7	i
25	Cc1nc(C)c(C(=O)NCCC(c2ccccc2)c2ccccc2)o1	106	-1	·	i
26	Cn1cc(S(=O)(=O)Nc2ccc(F)cc2F)c(=O)n(C)c1=O	98	7	-4.8	i
27	Cc1cc(Cl)c(S(=O)(=O)Nc2ccc(Cl)cn2)cc1OCC(N)=O	101	-8	-2.1	i
28	CCOC(=O)c1c(NS(=O)(=O)c2cccc(OC)c2)sc2c1CCC2	103	-6	-2.7	i
29	CCc1nnc(NC(=O)CCC(=O)N2CCN(c3ccccn3)CC2)s1	101	-11	-1.9	·
30	O=C(NN=C1CCCCC1)c1cc(-c2ccccc2)n[nH]1	102	-3	0.5	i

#	HSV replic up primary fold	Insulin prom inh	Insulin prom inh cell count
21	1.1	-36	76
22	0.89	·	·
23	0.93	19	144
24	0.91	·	·
25	1	-69	85
26	0.96	·	·
27	0.94	0	91
28	0.91	-44	102
29	·	64	157
30	1.1	34	136

More records.
#	molecule	RGS16-Gao	PKD1 inh	GALR2 agonist	HSV replic up
31	Cc1ccc(S(=O)(=O)N2CCN(C(=O)CC(C)(C)C)CC2)cc1	108	1	·	i
32	COc1cc(NC2c3ccccc3C(=O)N2c2ccc(C)cn2)cc(OC)c1OC (stereo not given)	99	2	-0.4	i
33	Cn1c(CCC(=O)Nc2ccc(N3CCOCC3)cc2)nc(=O)c2ccccc21	97	-5	-1.1	i
34	O=C(COC(=O)CNC(=O)c1cccs1)Nc1ccccc1C(F)(F)F	99	0	·	i
35	CNCc1sccc1C	95	9	·	i
36	Cc1cc(C)n(CC2CC(=O)N(c3ccc(F)c(Cl)c3)C2=O)n1 (stereo not given)	98	3	-1.5	i
37	O=C(COc1ccc2ccccc2c1)NC1CC1	98	-1	-1.4	i
38	CCOc1ccc(S(=O)(=O)N2CCN(Cc3ccccc3)CC2)c2cccnc12	97	3	0.2	i
39	CCOc1ccc2cc(/C=C/C(=O)c3ccco3)c(Cl)nc2c1	98	-4	0.5	·
40	COc1ccc(C(=O)CCN2CCCCCC2)cc1	100	8	-0.5	i

#	HSV replic up primary fold	Insulin prom inh	Insulin prom inh cell count
31	0.88	37	99
32	0.88	·	·
33	0.86	·	·
34	0.97	·	·
35	0.97	·	·
36	1.1	-86	84
37	0.96	7	65
38	1	-43	103
39	·	-119	103
40	0.95	7	108

Additional results.
#	molecule	RGS16-Gao	PKD1 inh	GALR2 agonist	HSV replic up
41	CCOC(=O)N1CCN(CC(=O)N2c3ccccc3CCc3ccccc32)CC1	104	0	·	i
42	COc1ccc(CC(=O)Nc2cc(C)on2)cc1	103	-8	-1.6	i
43	CCCSc1nc(C)cc(C)c1C(N)=O	122	-7	-3.5	i
44	Cc1cccc(C)c1Nc1nnc(SCC(=O)Nc2ncc(C(F)(F)F)cc2Cl)s1	104	-8	-1.0	i
45	CCCn1nnc(NC(=S)NC(=O)c2cccs2)n1	98	-1	-0.7	i
46	N#Cc1cc(-c2ccccc2)oc1NC(=O)c1ccco1	92	-1	-0.9	i
47	Cn1ccc(=NC=C(C#N)C#N)c2ccccc21	101	-1	·	i
48	CC(C)CC(NC(=O)C(NC(=O)OC(C)(C)C)C(C)C)C(N)=O (stereo not given)	109	4	·	i
49	CC(=O)N=C1SC2CS(=O)(=O)CC2N1c1ccc(-c2nc3ccc(C)cc3s2)cc1 (stereo not given)	94	2	-0.1	i
50	Nc1cccc(-c2cn3cccnc3n2)c1	84	-8	·	i

#	HSV replic up primary fold	Insulin prom inh	Insulin prom inh cell count
41	1	·	·
42	0.96	3	167
43	0.78	-8	166
44	1	57	95
45	0.95	45	114
46	0.7	-194	89
47	1	·	·
48	0.9	·	·
49	1	-19	101
50	0.9	-28	160

(next part)
#	molecule	RGS16-Gao	PKD1 inh	GALR2 agonist	HSV replic up
51	Cc1c(N(C)C(=O)c2ccc3c(c2)OCO3)c(=O)n(-c2ccccc2)n1C	92	-10	-4.4	i
52	O=C(Nc1ccc(OCc2ccccc2)cc1)c1cccc([N+](=O)[O-])c1	105	-17	0.9	i
53	O=C(CCN1C(=O)C2C3C=CC(C3)C2C1=O)Nc1ccc2c(c1)OCO2 (stereo not given)	103	-13	-2.7	i
54	CCCCCCCCCCCC(=O)NC1CCS(=O)(=O)C1 (stereo not given)	99	-7	·	i
55	Cn1c(=O)c2c(-c3ccccc3)n(-c3ccccc3O)cc2n(C)c1=O	100	11	0.8	i
56	CCn1cnc2sc(C(=O)N(Cc3ccc(N(C)C)cc3)Cc3ccco3)c(C)c2c1=O	87	-12	0.5	i
57	Cc1cc(C)nc(/N=C(/NC(=O)Nc2ccc(Cl)c(Cl)c2)Nc2ccccc2)n1	104	-15	0.0	i
58	O=c1cc(-c2cccc(F)c2)[nH]c2ccccc12	103	-18	0.6	i
59	CCCOc1ccc(-c2nnn(CC(=O)c3c[nH]c4ccccc34)n2)cc1	100	-1	-5.2	i
60	COc1ccc2oc(C)c(C(=O)c3ccc([N+](=O)[O-])cc3)c2c1	105	8	-0.6	i

#	HSV replic up primary fold	Insulin prom inh	Insulin prom inh cell count
51	0.79	17	99
52	0.71	28	47
53	0.92	12	109
54	0.96	·	·
55	0.92	-41	98
56	0.84	-12	120
57	0.85	·	·
58	0.63	-190	6
59	0.86	-16	130
60	1	-52	118

Continued.
#	molecule	RGS16-Gao	PKD1 inh	GALR2 agonist	HSV replic up
61	Cc1cc(NCCN2CCCCC2)n2c(nc3ccccc32)c1C#N	93	-7	0.1	i
62	COc1ccc(C(C)=O)cc1COC(=O)C(CO)NS(=O)(=O)c1ccc(Br)cc1 (stereo not given)	110	-6	·	i
63	CC(=O)N1CCC2(CC1)CC(=O)c1cc(OCC(=O)NCc3ccc(C)cc3)ccc1O2	80	10	-1.6	i
64	O=C(CN1CCOCC1)Nc1ccc2c(c1)OC(F)(F)O2	93	6	·	i
65	O=C(c1ccco1)N1CCN(C(c2ccccc2Cl)c2nnnn2Cc2ccco2)CC1 (stereo not given)	93	-3	-2.0	·
66	CCOC(=O)NC(=O)/C(N=Nc1cc(C)cc(C)c1)=C(\C)O	98	-6	·	i
67	CCN(CC)C(C)C(=O)Nc1c2c(cc3c1CCC3)CCC2 (stereo not given)	104	1	-1.7	i
68	CC1=C(C(=O)NC(C)c2ccc3c(c2)OCCO3)C2(CCC(C)CC2)OC1=O (stereo not given)	99	-13	-0.3	i
69	FC(F)(F)c1cc(CCN2C(=S)NC[C@@H]2c2ccccc2)cc(C(F)(F)F)c1	103	·	·	i
70	S=C(Nc1ccccc1Cl)Nc1ccc(Cl)cc1Cl	94	-4	-1.1	i

#	HSV replic up primary fold	Insulin prom inh	Insulin prom inh cell count
61	1.1	-5	104
62	0.96	-67	127
63	1.2	26	68
64	1	·	·
65	·	·	·
66	0.98	·	·
67	1.1	0	95
68	1	·	·
69	0.88	·	·
70	0.72	16	91

(next part)
#	molecule	RGS16-Gao	PKD1 inh	GALR2 agonist	HSV replic up
71	COc1ccc(C2C(C#N)=C(N)N(c3cccnc3)C3=C2C(=O)CC(C)(C)C3)cc1OC (stereo not given)	53	-6	-1.6	i
72	Cn1cc(S(=O)(=O)Nc2ccc3c(c2)OCCO3)cn1	105	-5	·	i
73	CC(C)Cc1nnc(NC(=O)CSc2ccccn2)s1	·	3	-0.8	i
74	CN(C)S(=O)(=O)c1ccc(NC(=O)C2CC3C=CC2C3)cc1 (stereo not given)	60	-4	0.5	i
75	O=C(c1cccc(F)c1)N1CCCC(C(=O)N2CCN(c3ccccc3)CC2)C1 (stereo not given)	100	·	·	i
76	Cc1onc(-c2ccccc2)c1-c1csc(COc2ccccc2)n1	95	·	·	i
77	Cc1ccc2c(c1)NC(=O)C(CC(=O)O)O2 (stereo not given)	102	-2	-2.6	i
78	COc1cc2c(cc1NC(=O)CSc1nc3ccc(C)cc3[nH]1)oc1ccccc12	121	-17	-2.6	i
79	Cc1noc(C)c1COc1cccc(C(=O)Nc2ccccc2N2CCOCC2)c1	103	-3	-0.5	i
80	Nc1nc(-c2ccc(Cl)cc2)nn1C(=O)c1cccnc1	101	-2	-3.0	i

#	HSV replic up primary fold	Insulin prom inh	Insulin prom inh cell count
71	0.91	0	51
72	1.1	·	·
73	0.92	-22	126
74	0.91	·	·
75	0.9	·	·
76	0.96	·	·
77	0.81	·	·
78	0.95	24	81
79	0.98	13	102
80	1	-18	86
